Source: PubChem BioAssay
MARV entry inh = blocks Marburg virus binding to or entry into cells | Marburg virus pseudotyped entry inhibition, cell reporter; control for the full effect not named in the record; about a third of the inactives were read at about 46 µM | Potency, µM (top dose mostly 37.8 µM), inactives show at the top dose activity change, negative = inhibition, most hits filed as inhibitors | 300,000 tested, 1.8% active; active = well fitted inhibition curve with a large enough effect; inconclusive = small, poorly fitted or top-dose-only effect, or effect the other way; inactive = flat fitted curve, though single readings scatter; tested in HEK293 cells; about a fifth of its hits are not listed in these tables; further: on the % scale 0 is the no-effect control and ±100 the full control effect; luciferase read-out
NS1 inh = influenza NS1 inhibition; S. cerevisiae slowed by influenza A NS1, growth recovery by OD600; Potency, µM (highest dose often 46.1 µM), without a hit: at the top dose activity, positive = more growth; 270,000 tested, 0.4% active; further: actives are rising curves; nearly all actives have a fitted effect of over 50% in size
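Growth recovery, yeast-based: influenza A NS1 expressed in S. cerevisiae causes slow growth, and suppressors are detected by OD600. The parent strain without NS1 is used as positive control.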
Cruzain inh Det = cruzain (T. cruzi) inhibition with detergent; purified cruzain, Z-FR-AMC fluorescence, 0.01% Triton; 200,000 tested, 0.43% active; AID 1478; Potency, µM, inactives show max response, negative = inhibition, actives largely listed as inhibitors; active means well fitted curve in the direction sought with a large enough effect; inconclusive means small, poorly fitted or top-dose-only effect, or another doubt; inactive means no such curve, though single readings can be large; an effect the other way counts as inactive or inconclusive;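 further: plate controls were neutral wells for no effect and buffer without enzyme for full effect; nearly all actives have a fitted effect of over 40% in size; top concentration of the series not given in the record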
Target sequence (P25779 123-467 limits assumed): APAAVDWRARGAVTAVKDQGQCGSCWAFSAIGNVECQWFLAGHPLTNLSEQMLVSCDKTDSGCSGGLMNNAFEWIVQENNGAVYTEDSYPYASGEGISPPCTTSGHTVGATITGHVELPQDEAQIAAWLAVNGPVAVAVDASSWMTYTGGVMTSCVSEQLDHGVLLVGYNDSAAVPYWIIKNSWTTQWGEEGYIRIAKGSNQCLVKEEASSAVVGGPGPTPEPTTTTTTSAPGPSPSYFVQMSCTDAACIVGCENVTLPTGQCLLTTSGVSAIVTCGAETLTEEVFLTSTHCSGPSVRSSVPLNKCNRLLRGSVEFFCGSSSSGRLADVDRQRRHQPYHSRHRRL
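Z-FR-AMC hydrolysis (2 uM substrate) by cruzain (1.5 nM) monitored kinetically at ex 360/em 450 nm after 15 min room-temperature compound exposure; 0.01% Triton X-100, pH 5.5, 5 mM DTT.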
Cruzain inh noDet = cruzain (T. cruzi) inhibition without detergent. purified cruzain, Z-FR-AMC fluorescence, no detergent. Potency, µM, inactives show max response, negative = inhibition, actives largely listed as inhibitors. 200,000 tested, 2.3% active. AID 1476; active means well fitted curve in the direction sought with a large enough effect; inconclusive means small, poorly fitted or top-dose-only effect, or another doubt; inactive means no such curve, though single readings can be large; an effect the other way counts as inactive or inconclusive;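 further: plate controls were enzyme without inhibitor for no effect and buffer without enzyme for full effect; nearly all actives have a fitted effect of over 40% in size; top concentration of the series not given in the record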
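Detergent-free condition (0.00005% Triton X-100) in acetate buffer pH 5.5 with DTT. 1.5 nM enzyme and compound were pre-mixed 15 min, then 2 uM Z-FR-AMC substrate added; reaction progress from fluorescence change between first and third reads (60 s).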
RE007 growth inh = less growth of the S. pombe RE007 Vpr strain | S. pombe RE007 Vpr strain, BacTiter-Glo ATP luminescence, 24 h; control for the full effect not named in the record | Potency, µM (doses to about 92.2 µM), for the others: top-dose activity change, negative = less growth | 360,000 tested, 0.21% active | AID 651644; active = well fitted falling curve with a large enough effect; inconclusive = small, poorly fitted or top-dose-only effect; inactive = no such curve, though single readings can be large or run the other way;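 further: on the % scale 0 is the no-effect control and ±100 the full control effect; nearly all actives have a fitted effect of over 50% in size; the assay follows cell death caused by Vpr and the record does not say whether a fall means rescue or toxicity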
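Fission yeast strain RE007, carrying one chromosomally integrated HIV-1 vpr copy, was seeded at OD 0.01 in PMG+AL medium with 23 nL pinned compound. After 24 h at 30 °C and 99% humidity, viability was read by BacTiter-Glo luminescence.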
2A StopGo = lowers the luciferase signal of an FMDV 2A StopGo reporter; human cells with a luciferase reporter of 2A StopGo recoding; control for the full effect not named in the record; Potency, µM (series often up to 57.9 µM), inactives show at the highest dose signal change, negative = less light; 410,000 tested, 1.2% active; active = well fitted falling curve with a large enough effect; inconclusive = small, poorly fitted or top-dose-only effect; inactive = no such curve, though single readings can be large or run the other way; tested in HEK293T cells; further: on the % scale 0 is the no-effect control and ±100 the full control effect; nearly all actives have a fitted effect of over 45% in size; luciferase light after 4 h
SARS PLpro yeast = blocks SARS-CoV papain-like protease in a yeast assay; S. cerevisiae expressing SARS-CoV PLpro, growth rescue; control for the full effect not named in the record; Potency, µM (series often up to 32.9 µM), for inactives: at the top dose activity, positive = growth rescue; 330,000 tested, 0.19% active; further: 0% is about no effect; nearly all actives have a fitted effect of over 55% in size; growth read by luminescence after 48 h
LASV entry inh = Lassa virus entry inhibition; Lassa virus pseudotype entry inhibition, cell reporter; control for the full effect not named in the record; Potency, µM (series often up to 37.9 µM), for inactives: at the highest dose activity change, negative = inhibition, most hits filed as inhibitors; 300,000 tested, 1.2% active; AID 540256; active means well fitted inhibition curve with a large enough effect; inconclusive means small, poorly fitted or top-dose-only effect, or effect the other way; inactive means flat fitted curve, though single readings scatter; tested in HEK293 cells; further: on the % scale 0 is the no-effect control and ±100 the full control effect; nearly all actives have a fitted effect of over 50% in size; luciferase read-out
Active calls of the source: *; ? = inconclusive; / = no result given; & = joins results of further samples; [ ] = dose if it differs, or a comment. Unless noted, the call rests on the fitted dose curve; in most records, active means well fitted rising curve with a large enough effect; inconclusive means small, poorly fitted or top-dose-only effect; inactive means no such curve, though single readings can be large or run the other way. Potency means the concentration at half of the fitted maximal effect. This is a random part of the collection; overall some 4.5% were active at least once.

no.	compound	MARV entry inh	NS1 inh	Cruzain inh Det	Cruzain inh noDet	RE007 growth inh	2A StopGo	SARS PLpro yeast	LASV entry inh
1	COCCCn1c(SCC(=O)Nc2ccc(C)cc2)nc2ccccc2c1=O	-14%[46.1 µM]	-34%	/	/	1%	1%	-1%	0%
2	CCCNC(=O)NC(=O)COc1c(F)c(F)cc(F)c1F	10%[46.1 µM]	-12%	-2.0%	-3%	15%	-3%	-3%	1%
3	Cc1ccc(CNC(=O)CCS(=O)(=O)c2ccc3c(c2)oc(=O)n3C)cc1	7%[46.1 µM]	11%	/	/	6%	-2%	0%	7%[46.1 µM]
4	CN(C)c1ccc(/C=C/C(=O)c2ccccc2O)cc1	?	/	/	/	-6%	-24%	-5%	22%
5	Cn1c(=O)[nH]c(=O)c2c1nc(N1CCCC1)n2CCCSc1nnnn1-c1ccccc1	1%	4%	-0.5%	-12%	3%	?	-7%	-9%
6	CCCCOC(=O)CSc1nnc(-c2cc(OC)c(OC)c(OC)c2)o1	?	-14%	-1.7%	4%	-26%	11%	0%	?
7	O=C(Nc1ccc(Br)cn1)c1ccc(Br)s1	?	-4%	/	/	-4%	1%	-2%	?
8	Cn1c(=O)c2c(SCC(=O)NC3CCCC3)nc(CC(C)(C)C)nc2n(C)c1=O	/	9%	/	/	-2%	-15%	-9%	/
9	COc1ccc(N2CC(C(=O)N3CCN(S(=O)(=O)c4ccc(F)c(F)c4)CC3)CC2=O)c(OC)c1 (configuration not stated)	-8%	/	/	/	1%	-1%	/	-4%
10	O=C(Nc1ccccc1)N(Cc1cccs1)c1ccc(Cl)cc1	?	/	-2.1%	-21%	/	-12%	/	18%[46.1 µM]
11	COc1ccccc1C(=O)Nc1ccc(S(=O)(=O)N2CCc3ccccc32)cc1	?	?	6.6%	?	-12%	/	3%	-28%
12	CN(CC(=O)Nc1cccnc1)S(=O)(=O)c1ccccc1	6%	-2%	2.9%	-1%	-7%	3%	-3%	-26%
13	O=C(N/N=C/c1cc([N+](=O)[O-])ccc1O)c1ccncc1	/	-11%	/	/	3%	11%	0%	/
14	O=C(CCC(=O)OCC(F)(F)C(F)F)NCc1ccccc1	-6%	-2%	0.8%	-5%	4%	-2%	-2%	9%
15	CC(=O)c1sc(NC(=O)C=C(C)C)nc1C	1%	-5%	-6.5%	3%	-5%	47%[activator]	-1%	8%
16	CCn1nc(NC(=O)COC)c2cc3cc(C)ccc3nc21	/	-5%	/	/	1%	31%[activator]	0%	/
17	Cc1ccc(N(Cc2ccc([N+](=O)[O-])cc2)C(=O)c2ccco2)cc1C	0%	-6%	-6.9%	7%	15%	-28%	-36%	-7%
18	N#Cc1ccc(NC(=O)Cn2cnc(S(=O)(=O)N3CCOCC3)c2)cc1	/	-8%	/	/	-9%	-14%	-13%	/
19	Cc1ccnn1Cc1cc(C(=O)O)c2ccccc2n1	7%	/	/	/	3%	9%	-1%	-9%[46.1 µM]
20	Cc1cc(C)cc(C(N)=Nc2cccc(C#N)c2)c1	?	3%	/	/	-21%	2%	-2%	-16%[46.1 µM]

Continued; the last three above are carried over.
no.	compound	MARV entry inh	NS1 inh	Cruzain inh Det	Cruzain inh noDet	RE007 growth inh	2A StopGo	SARS PLpro yeast	LASV entry inh
18	N#Cc1ccc(NC(=O)Cn2cnc(S(=O)(=O)N3CCOCC3)c2)cc1	/	-8%	/	/	-9%	-14%	-13%	/
19	Cc1ccnn1Cc1cc(C(=O)O)c2ccccc2n1	7%	/	/	/	3%	9%	-1%	-9%[46.1 µM]
20	Cc1cc(C)cc(C(N)=Nc2cccc(C#N)c2)c1	?	3%	/	/	-21%	2%	-2%	-16%[46.1 µM]
21	Cc1ccc(CNC(=O)C2CC(c3cccc([N+](=O)[O-])c3)=NO2)o1 (configuration not stated)	/	-7%	3.6%	4%	5%	51%[activator]	-10%	/
22	CC(=O)Nc1ccc(S(=O)(=O)N(Cc2ccccc2)c2ccccn2)cc1	/	-3%	/	/	3%	-17%	-7%	/
23	Cc1ccc(NC(=O)C2CCCN2C(=O)Oc2ccccc2)c(C)c1 (configuration not stated)	4%	3%	/	/	-10%	-5%	-1%	-13%
24	CCN1CC(c2ccccc2)C(c2ccc(Cl)cc2)=N1 (configuration not stated)	?	-8%	-6.6%	-5%	-7%	-17%	-35%	1%
25	COc1cc(NC(=O)COc2ccccc2)ccc1NC(=O)c1ccco1	0%[46.1 µM]	-16%	/	/	1%	-20%	-9%	-13%
26	Cc1cc(C)n(C(C)CC(=O)NCc2ccc(Cl)cc2)n1 (configuration not stated)	/	/	-1.7%	-13%	/	-3%	/	7%[46.1 µM]
27	CC1CCN(C(=O)Cn2cc(SCC(=O)NCc3ccc(F)cc3)c3ccccc32)CC1	/	/	-4.3%	6%	/	-7%	/	1%[46.1 µM]
28	CCOC(=O)NC(Nc1nnc(SCC)s1)(C(F)(F)F)C(F)(F)F	-12%	1%	1.1%	-10%	-12%	-8%	3%	8%
29	Cc1c(C(=O)OCC(=O)N2C(C)CCCC2C)oc2ccccc12 (configuration not stated)	/	-41%	/	/	-8%	35%[activator]	5%	/
30	O=[N+]([O-])c1ncccc1OCc1ccc(Cl)c(Cl)c1	?	-13%	/	/	?	29%	6%	9%[46.1 µM]
31	CCN(CC)S(=O)(=O)c1cccc(NC(=O)COC(=O)CCC(=O)c2cccs2)c1	?	/	/	/	8%	1%	0%	6%[46.1 µM]
32	Cc1cc(N/C=C/C(=O)c2ccccc2)ccc1Br	/	8%	/	/	4%	-5%	0%	/
33	CC(=O)c1ccc([N+](=O)[O-])c(CS(=O)(=O)c2ccccc2)c1	2%	2%	/	/	-6%	6%	-1%	/
34	COCCNC(=O)CCCn1c(=O)c2cc(OC)c(OC)cc2n(CC(=O)Nc2ccc(F)cc2)c1=O	-1%&-1%[46.1 µM]	/	-0.5%	1%	22%	48%&-9%[activator]	0%	1%[46.1 µM]
35	O=[N+]([O-])c1cccc(-c2ccc(CN3CCN(c4ccccc4)CC3)o2)c1	1%	-17%	/	/	?	-20%	4%	?
36	COC(=O)c1cc2sccc2n1Cc1nc(-c2ccc(C)cc2)oc1C	?	/	-7.8%	-6%	/	-13%	/	/
37	Cc1ccc(CC(NC(=O)c2ccccc2)C(=O)NC(CC(C)C)C(=O)O)cc1 (configuration not stated)	11%[46.1 µM]	/	/	/	10%	2%	-2%	18%
38	Cc1ccc2nc(Nc3ccc(Cl)cc3)c3nncn3c2c1	/	-5%	/	/	?	-11%	-3%	/
39	O=c1cc(-c2ccccc2)c2cc(Cl)ccc2[nH]1	/	-3%	/	/	0%	-14%	-3%	/
40	CC1CCN(c2nncc3ccccc23)CC1	13%[46.1 µM]	-15%	1.4%	2%	-11%	-20%	-11%	-10%

Some of these compounds in order of number of heavy atoms, smallest number first.
no.	compound	MARV entry inh	NS1 inh	Cruzain inh Det	Cruzain inh noDet	RE007 growth inh	2A StopGo	SARS PLpro yeast	LASV entry inh
24	CCN1CC(c2ccccc2)C(c2ccc(Cl)cc2)=N1 (configuration not stated)	?	-8%	-6.6%	-5%	-7%	-17%	-35%	1%
33	CC(=O)c1ccc([N+](=O)[O-])c(CS(=O)(=O)c2ccccc2)c1	2%	2%	/	/	-6%	6%	-1%	/
31	CCN(CC)S(=O)(=O)c1cccc(NC(=O)COC(=O)CCC(=O)c2cccs2)c1	?	/	/	/	8%	1%	0%	6%[46.1 µM]

The list goes on:
no.	compound	MARV entry inh	NS1 inh	Cruzain inh Det	Cruzain inh noDet	RE007 growth inh	2A StopGo	SARS PLpro yeast	LASV entry inh
41	CC1CCCN(C(C(=O)NC2CCCCC2)c2cc3c(cc2[N+](=O)[O-])OCO3)C1 (configuration not stated)	29%	29%	-4.8%	-4%	1%	-8%	0%	?
42	O=[N+]([O-])c1ccc(SCCc2ccccn2)cc1	7%	-1%	/	/	-6%	28%	-3%	8%
43	CC(NC(=O)c1ccc(C23CC4CC(CC(C4)C2)C3)cc1)C(=O)O (configuration not stated)	11%[46.1 µM]	/	/	/	-18%	17%	-6%	-25%
44	CCOC(=O)c1ccc(NC(=O)CSc2n[nH]c(-c3ccncc3)n2)cc1	?	-7%	0.6%	4%	13%	6%	-2%	20%
45	CCN(CC)S(=O)(=O)c1ccc(-c2nnc(SCC(=O)Nc3cc(OC)cc(OC)c3)o2)cc1	4%	7%	-5.5%	6%	-2%	-9%	2%	1%
46	CCOC(=O)c1c(-c2ccc(OC)cc2)csc1/N=C/C1=C(O)CCCC1=O	-20%	27%	-5.7%	?	0%	-11%	?	-25%
47	COc1ccc(C2=NCCn3cccc32)c(OC)c1	-27%	6%	-8.4%	-12%	1%	13%	6%	-30%
48	O=C(CCNS(=O)(=O)c1cccc2nonc12)Nc1ccc(Cl)cc1	6%[46.1 µM]	0%	/	/	-16%	23%	3%	-1%
49	O=C(c1ccc(Cl)c(Cl)c1)N1CCC(=O)N(C(COCc2cccc(C(F)(F)F)c2)Cc2ccccc2)CC1 (configuration not stated)	?	16%	?	11%	4%	-11%	-24%	?
50	COc1ccc(NC(=O)C2C(=O)NC3(C)CC2c2ccccc2O3)cc1 (configuration not stated)	?	-8%	-0.7%	3%	25%	18%	-4%	0%
51	CSc1ccccc1C(=O)C1CCCN(C(=O)CCc2cccnc2)C1 (configuration not stated)	?	2%	/	/	-1%	2%	0%	11%[46.1 µM]
52	COC(=O)c1ccccc1NC(=O)CSc1nncn1C	3%[46.1 µM]	/	/	/	3%	-11%	0%	12%[46.1 µM]
53	CC(C)C(=O)NC(=S)Nc1ccccc1C(=O)Nc1ccccc1	3%	-4%	5.5%	-1%	-18%	/	3%	18%
